Compound activity as filed in PubChem.
KCNQ2 enhance – potentiators of rat KCNQ2 potassium channel | O88943 | CHO-K1 KCNQ2, FluxOR thallium flux fluorescence; active compounds read high | B-score at 10 µM | 310,000 compounds, 0.54% hits | AID 2239;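 active means fluorescence ratio B-score at least 3 SD of library B-scores, with initial fluorescence B-score within 3 SD, cut at about 5.3 in these data; same plate scores as AID 2156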;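 further: B-score of peak minus minimum over baseline fluorescence ratio after K+ and Tl+ stimulus; positive B-score means potentiation of KCNQ2 with more thallium influx and brighter signal; only the inactives scoring about 0 or higher are listed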
Target sequence (O88943 whole entry, looked up): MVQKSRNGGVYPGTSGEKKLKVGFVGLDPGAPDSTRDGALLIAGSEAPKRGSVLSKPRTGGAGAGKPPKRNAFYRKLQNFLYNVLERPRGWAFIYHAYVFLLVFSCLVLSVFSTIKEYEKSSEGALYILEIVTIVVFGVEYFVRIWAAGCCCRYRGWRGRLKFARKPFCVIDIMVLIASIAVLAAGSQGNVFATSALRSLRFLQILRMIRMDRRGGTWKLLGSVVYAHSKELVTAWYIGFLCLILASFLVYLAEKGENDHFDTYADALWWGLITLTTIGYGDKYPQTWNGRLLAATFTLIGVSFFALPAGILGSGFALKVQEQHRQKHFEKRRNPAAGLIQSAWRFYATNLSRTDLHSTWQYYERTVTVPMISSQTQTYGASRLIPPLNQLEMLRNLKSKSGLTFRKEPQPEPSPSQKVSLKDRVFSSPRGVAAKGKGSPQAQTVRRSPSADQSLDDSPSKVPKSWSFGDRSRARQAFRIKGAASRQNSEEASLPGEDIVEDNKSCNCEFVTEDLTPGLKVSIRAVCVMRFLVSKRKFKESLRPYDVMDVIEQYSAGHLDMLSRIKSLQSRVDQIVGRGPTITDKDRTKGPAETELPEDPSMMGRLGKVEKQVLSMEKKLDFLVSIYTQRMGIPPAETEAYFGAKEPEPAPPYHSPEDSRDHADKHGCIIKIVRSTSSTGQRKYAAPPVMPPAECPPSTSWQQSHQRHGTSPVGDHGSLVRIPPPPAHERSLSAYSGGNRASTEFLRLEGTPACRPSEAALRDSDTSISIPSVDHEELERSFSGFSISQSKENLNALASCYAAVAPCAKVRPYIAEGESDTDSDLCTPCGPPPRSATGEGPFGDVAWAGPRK
KCNQ2 enhance baseline – further read-out of KCNQ2 enhance, marked with its call; B-score; compound at 10 µM; measured here: initial fluorescence intensity artifact check;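 brightness before thallium and not channel activity; 0 = typical well and far values either way flag optical interference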
The depositor's hits bear a star. Some of the compounds tested; the hit share may differ from the screen's.

item	structure	KCNQ2 enhance	KCNQ2 enhance baseline
1	Cc1ccc(/C=N/NC(=O)c2cccc(NC(=O)c3ccccc3C)c2)o1	0.62	0.08
2	COc1ccc(C(=O)NCCc2nnc3ccc(SCC(=O)N4CCCCC4)nn23)cc1	1.8	0
3	NC(=O)N1CCN(C(=O)c2ccco2)CC1	0.53	-0.07
4	CCOC(=O)N1CCN(C(=O)N2CCOCC2)CC1	1.4	0.27
5	Cc1ccc(C)c(NC(=S)NCCN(C2CCCCC2)C2CCCC2)c1	0.02	0.5
6	OC1COC(O)C(O)C1O (stereo not given)	0.75	-1.7
7	COc1ccc(CC(=O)NC2CCSc3ccccc32)cc1OC (stereo not given)	0.07	0.07
8	c1ccc(-c2nc(-c3ccncc3)n[nH]2)nc1	0.39	1.4
9	Cc1cc(C)nc(/N=C(/NC(=O)Nc2ccc(Cl)c(Cl)c2)Nc2cccc(Cl)c2)n1	1.2	-2.1
10	Cc1ccc(Cl)cc1N1CCN(C(=O)C2CCN(S(=O)(=O)c3cccnc3)CC2)CC1	0.58	0.24
11	O=C(COc1ccc([N+](=O)[O-])cc1Cl)NCCc1ccccc1	2.2	-0.2
12	N#Cc1cccc(NC(=O)CC2CCCCC2)c1	1.8	-3.6
13	O=C(CNS(=O)(=O)c1ccccc1)N/N=C/c1ccccc1[N+](=O)[O-]	0.27	-0.04
14	CC(=O)c1ccc(OCCCC(=O)Nc2ccc(C)c(S(=O)(=O)N(C)C)c2)cc1	0.23	0.28
15	O=c1cc(-c2cccc(Br)c2)nc(-c2ccccc2F)o1	1.2	0.39
16	Cn1nc(C(C)(C)C)cc1C(=O)NNC(=O)c1ccc(C(F)(F)F)cc1	0.26	-0.21
17	COc1ccc(CNC(=O)Cn2ncn3cccc3c2=O)cc1	0.21	-2.3
18	Cc1cc(/C=N\NC(=O)COc2cccc3cccnc23)c(C)n1-c1ccc(Br)cc1	2.9	-1.4
19	CCOC(=O)NC(=O)/C(C#N)=C(/C)N(C)C	0.37	0.66
20	CN(C(=O)COC(=O)c1cc([N+](=O)[O-])ccc1Sc1ccccc1)C1CCS(=O)(=O)C1 (stereo not given)	1.7	-1.4

Reprinted at random: 4 entries already listed.
item	structure	KCNQ2 enhance	KCNQ2 enhance baseline
13	O=C(CNS(=O)(=O)c1ccccc1)N/N=C/c1ccccc1[N+](=O)[O-]	0.27	-0.04
8	c1ccc(-c2nc(-c3ccncc3)n[nH]2)nc1	0.39	1.4
20	CN(C(=O)COC(=O)c1cc([N+](=O)[O-])ccc1Sc1ccccc1)C1CCS(=O)(=O)C1 (stereo not given)	1.7	-1.4
12	N#Cc1cccc(NC(=O)CC2CCCCC2)c1	1.8	-3.6

Next compounds
item	structure	KCNQ2 enhance	KCNQ2 enhance baseline
21	CC(C)CNC(=O)NC(=O)COC(=O)c1cccc(NS(=O)(=O)c2ccc(F)c(F)c2)c1	0.87	-0.02
22	COc1ccc(CNC(=O)CN2C(=O)COc3ccc(S(=O)(=O)N4CCC(C)CC4)cc32)cc1	1.6	-0.22
23	COc1ccccc1-n1c(SCC(=O)OC(C)C)nc2cccnc21	1.2	0.34
24	CCOc1ccccc1C(=O)NC1CCNCC1	0.2	-0.29
25	Cc1cc(C)nc(Nc2cccc3ccccc23)n1	0.12	-0.87
26	CC1(C)Cc2c(C#N)c(OCC(=O)c3ccc(Cl)cc3)nc(-c3ccco3)c2CO1	2	0.1
27	Cc1ccc(S(=O)(=O)N2CCC(C(=O)Nc3ccc4c(c3)OCO4)CC2)cc1	1.9	0.14
28	CC1(C)CC(O)C(CCC(O)c2ccccc2)C(C)(C)N1 (stereo not given)	0.23	1
29	CCOc1ccc(NC(=O)CNC(=O)c2cn(-c3ccccc3OC)c(=O)c3ccccc23)cc1	0.41	-1.5
30	O=c1c2ccccc2c(C=Nc2ccc(O)cc2)c(O)n1Cc1ccccc1	0.18	1.1
31	CCCCc1ccc(NC(=O)c2ccc(NS(C)(=O)=O)cc2)cc1	1.6	0.51
32	OCCCn1c(C2CCCN2c2nc(-c3ccc(Cl)cc3)cs2)nc2cc(Cl)c(N3CCCCC3)cc21 (stereo not given)	8.1*	-0.35*
33	O=C(Nc1ccc(NC(=O)C2CC2)cc1)c1ccco1	0.44	0.74
34	CCOc1ccccc1NC(=O)CCS(=O)(=O)c1ccc2c(c1)CCN2C(C)=O	0.29	1.6
35	CCCNC(=O)CSc1nc2ccccc2c(=O)n1CCC	0.21	-0.88
36	O=C(C1CC1)N1CCc2cc(Br)cc(S(=O)(=O)NCCN3CCOCC3)c21	0.22	0.04
37	CN(C)S(=O)(=O)c1cccc(NC(=O)COC(=O)CCOc2ccccc2)c1	1.9	0.68
38	CC(C)C(c1nnnn1CCc1ccccc1)N1CCN(C(=O)c2ccco2)CC1 (stereo not given)	0.18	0.03
39	CCCOc1ccc(C(NC(=O)CC(C)C)NC(=O)CC(C)C)cc1OC	1.6	-3
40	CCCSC1=C(C#N)C(c2cccs2)CC(=O)N1 (stereo not given)	1.7	-1.4

Some of these compounds in order of length of the SMILES, falling.
item	structure	KCNQ2 enhance	KCNQ2 enhance baseline
26	CC1(C)Cc2c(C#N)c(OCC(=O)c3ccc(Cl)cc3)nc(-c3ccco3)c2CO1	2	0.1
34	CCOc1ccccc1NC(=O)CCS(=O)(=O)c1ccc2c(c1)CCN2C(C)=O	0.29	1.6
33	O=C(Nc1ccc(NC(=O)C2CC2)cc1)c1ccco1	0.44	0.74

Other structures.
item	structure	KCNQ2 enhance	KCNQ2 enhance baseline
41	Cc1ccc(SC(C)C(=O)NC2CC2)cc1 (stereo not given)	1.1	-0.04
42	CN1CCN(C(=O)c2ccc3c(=O)n(-c4ccc(F)cc4)c(=S)[nH]c3c2)CC1	0.04	0.07
43	CC1C=CCC2C(=O)N(c3ccccc3OC(=O)c3cccs3)C(=O)C12 (stereo not given)	1.5	0.17
44	CCN(CC)CC#CCC(O)(c1ccccc1)c1ccc(Br)cc1 (stereo not given)	0.52	1.2
45	O=C(N/N=C/C=C/c1ccccc1[N+](=O)[O-])c1cccs1	2.1	0.6
46	Cc1ccc(CNC(=O)C(=O)c2cn(CC(=O)N3CCCC3)c3ccccc23)cc1	2.4	0.64
47	O=C1C(=Cc2cccs2)C(=O)c2ccccc21	0.03	0.96
48	Cc1nnc(N/N=C/c2ccccc2F)n1N	0.72	-0.59
49	COc1ccc(S(=O)(=O)NCc2ccccc2)cc1Br	1.1	-0.04
50	c1cncc(-c2nnc3n2CCC3)c1	1.8	-0.81
51	CCOC(=O)N1CCN(C(=O)/C(=C/c2cccc3ccccc23)NC(=O)c2ccc(OC)c(OC)c2)CC1	2.3	1.1
52	CCOc1ccc(C(C)NC(=S)NCc2ccc(F)cc2)cc1 (stereo not given)	2.9	-0.1
53	O=C(Nc1ccccc1)c1ccccc1NC(=O)C1CCCCC1	0.61	0.79
54	O=c1oc(Nc2cccc(Cl)c2)nc2ccccc12	0.16	-0.67
55	Cc1cc(C)n2nc(SCc3cccc(S(=O)(=O)N(C)C)c3)nc2n1	2.1	0.19
56	COc1ccc(CC(=O)NNC(=O)c2ccc(NC(C)=O)cc2)cc1	0.3	-1.5
57	O=C1Nc2cc(Cl)ccc2C1(N1CCNCC1)C(F)(F)F (stereo not given)	2	0.66
58	Cn1nnnc1SCCNCc1cccnc1	0.42	0.75
59	c1ccc(C2NCCc3ccccc32)cc1 (stereo not given)	0.15	-1.9
60	CCNc1nc(N)nc(-c2cc(Cl)ccc2OC)n1	2.3	-0.35
61	O=C(c1ccco1)N1CCN(C/C=C/c2ccccc2)CC1	0.14	1.7
62	CC1(C)N=C(c2cccs2)C(C)(C)N1O	0.07	2.3
63	Cc1ccc(S(=O)(=O)N(CC(=O)N2CCOCC2)c2ccccc2F)cc1	1.9	0.04
64	C=CCc1cccc(/C=N/NC(=O)C(C)Nc2ccc(C)cc2)c1O (stereo not given)	0.21	-0.1
65	Cc1ccc(NS(=O)(=O)c2c(C)noc2C)cc1	0.61	1.1
66	COc1cccc2c(=O)c3c([nH]c12)OC(C)(C)C3	1.7	-0.24
67	Cc1cc(=O)oc2cc(OCC(=O)NC3CC(C)(C)NC(C)(C)C3)ccc12	0.71	-0.79
68	Cc1ccc(O)c(N=Cc2cc(Cc3ccccc3)cc([N+](=O)[O-])c2O)c1	1.1	0.66
69	Cc1cccc(N2C(=O)c3ccc(Br)cc3C2=O)n1	1.7	-0.93
70	CCCCOC(=O)Nc1cc(Cl)ccc1C	0.19	1.8
71	O=C(COC(=O)CCC(=O)c1cccs1)Nc1ccc(S(=O)(=O)N2CCOCC2)cc1	0.41	-0.38
72	COC(=O)C(NC(=O)CSc1nc(N)cc(=O)[nH]1)c1ccccc1 (stereo not given)	0.28	-0.07
73	Cc1ccc(-n2nc(C(=O)O)cc2-c2ccccc2Cl)cc1	0.07	-0.48
74	Cc1ccc(CNC(=O)/C=C/c2cccs2)cc1	4.6	1.4
75	O=C(NCc1ccc2c(c1)OCO2)C1CCN(S(=O)(=O)N2CCCCC2)CC1	1.4	0.05
76	CCN(CC)C(=O)c1ccc(C)c(Br)c1	0.95	-3.7
77	C=CCNC(=O)c1ccccc1NC(=O)Nc1ccccc1	1.1	0.04
78	CN(C)c1cccc2c1C(=O)c1ccccc1C2=O	1.5	-1.6
79	Cc1c(Cl)cccc1-n1c(SCC(=O)N2CCC(C(=O)O)CC2)nnc1-c1ccncc1	0.53	0.58
80	CCCC(=O)Nc1ccc(S(=O)(=O)Nc2cc(C)nc(C)n2)cc1	0.7	2.5

Further results:
#	Molecule	KCNQ2 enhance	KCNQ2 enhance baseline
81	CCOC(=O)c1[nH]c(C)c(C(=O)NC2CCCC2)c1C	1.3	0.28
82	COc1ccc(-n2c(C)cc(C(=O)NC3CCCCC3)c2C)cc1	2.3	-0.26
83	Cc1c(C(=O)NCCCN2CCOCC2)oc2ccc(S(=O)(=O)N3CCOCC3)cc12	1.5	-0.28
84	Cc1noc(/C=C/c2cccs2)c1S(=O)(=O)N1CCC(C(=O)NCCCN2CCCC(C)C2)CC1 (stereo not given)	1.1	0.06
85	CCCOc1ccc(-c2nnn(CC(=O)OCC)n2)cc1	0.18	-0.84
86	COc1nc(-c2ccccc2)cc(C(F)(F)F)n1	0.84	0.03
87	Nc1nc2nccc(-c3ccccn3)n2n1	1.1	-0.02
88	O=C(CCS(=O)(=O)c1cccc2nsnc12)NC1CCCCC1	1.4	-1.7
89	O=C1CN(C(=O)CNC(=O)c2ccc(Cl)cc2Cl)CCN1	1.5	1.5
90	Cc1occc1C(=O)Nc1cc(C(C)(C)C)on1	2.2	-0.5
91	COc1ccccc1N(C)S(=O)(=O)c1ccc(C(=O)Nc2ccncc2)cc1	3	1.9
92	COc1ccc(CCN2C(=O)C(Oc3ccccc3)C2c2ccc3c(c2)OCO3)cc1 (stereo not given)	1.2	1.4
93	CCNc1nc(NCC)n2c(SCC(=O)Nc3cc(OC)ccc3OC)nnc2n1	0.88	-0.2
94	CNC(=O)c1c(NC(=O)CCS(=O)(=O)c2ccccc2)sc(C)c1C	0.58	-0.11
95	CCOC(=O)c1ccc(NC(=O)c2cccc(S(=O)(=O)N3CCN(C(C)=O)CC3)c2)cc1	1.2	0.53
96	Cc1cccc(N2C(S)=C(C#N)C(=O)NC23CCCCC3)c1	1.2	-0.22

A different layout for some results above:
(95) CCOC(=O)c1ccc(NC(=O)c2cccc(S(=O)(=O)N3CCN(C(C)=O)CC3)c2)cc1
(96) Cc1cccc(N2C(S)=C(C#N)C(=O)NC23CCCCC3)c1

Screen / compound no. | 95 | 96
KCNQ2 enhance | 1.2 | 1.2
KCNQ2 enhance baseline | 0.53 | -0.22

The results go on:
#	Molecule	KCNQ2 enhance	KCNQ2 enhance baseline
97	Cc1ccc(NC(=O)CS(=O)CC(=O)NC2CCN(Cc3ccccc3)CC2)c(C)c1 (stereo not given)	0.01	1.7
98	Cc1cc(C)c2c(c1)NC(C(=O)O)C1CC=CC21 (stereo not given)	0.84	0.2
99	Cc1nn(Cc2c(Cl)cccc2Cl)c(C)c1NC(=O)c1cnn2c(C(F)F)cc(-c3ccccc3)nc12	0.45	1.1
100	CSCCC(=O)N1CCCC(CNC(=O)c2ccccc2Cl)C1 (stereo not given)	0.01	-0.78
101	CC(=O)NCCNC(=O)c1ccc(CSc2ccc(Cl)cc2)cc1	0.78	-0.41
102	COc1cc(C(=O)N2CCC(NC(=O)C(Cc3ccc(C)cc3)NC(C)=O)CC2)cc(OC)c1OC (stereo not given)	1.2	0.63
103	CCN(CC)CCNC(=O)c1cn(CC)c2ccc(S(=O)(=O)N3CCOCC3)cc2c1=O	0.67	0.11
104	O=C(Nc1ccc(F)cc1)C1CCN(S(=O)(=O)c2cccc3nonc23)CC1	1.8	0
105	CCOc1ccccc1N1CCN(CC(=O)N(CC(C)C)c2c(N)n(CC(C)C)c(=O)[nH]c2=O)CC1	0.1	0.46
106	CCOc1ccc(Nc2nc(-c3cccnc3)cs2)cc1	0.45	0.1
107	O=C(CSc1nc2ccccc2s1)Nc1ncccn1	0.35	1.2
108	Cc1ccc(C2(C)NC(=O)N(CC(=O)Nc3cc(S(=O)(=O)N(C)C)ccc3C)C2=O)cc1 (stereo not given)	0.87	1.7
109	Cc1nc(SCC(=O)N2CCC(C(N)=O)CC2)n[nH]1	0.42	0.49
110	COc1ccc(C(=O)Nc2cccc(-c3ccc(N4CCOCC4)nn3)c2)cc1OC	2.4	-2.3
111	Cc1c(C(=O)Nc2ccc3c(c2)OCO3)sc2ncn(CC(=O)N3CC(C)CC(C)C3)c(=O)c12 (stereo not given)	1.9	-1.2
112	CC1Cc2nc(SCC(=O)NCC3CCCO3)n(Cc3ccccc3)c(=O)c2S1 (stereo not given)	0.98	0.46
